# Screening data from PubChem.
# HNF4A DNA FP: change in binding of human HNF4 alpha to DNA. AID 1224865. HNF4a-FITC DNA binding, fluorescence polarization, 1 h. activity change, % at 10 µM. hit rate 0.3% among 360,000; in the data active = activity change above about 30%, passing the limit was not always enough;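 note: controls were the assay level and a saturating level of protein; the project sought stronger binding though the title names inhibitors; some compounds called inactive have numbers as strong as hits; positive values seem to mean higher polarization but the record does not say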
# Target sequence (P41235 whole entry, looked up): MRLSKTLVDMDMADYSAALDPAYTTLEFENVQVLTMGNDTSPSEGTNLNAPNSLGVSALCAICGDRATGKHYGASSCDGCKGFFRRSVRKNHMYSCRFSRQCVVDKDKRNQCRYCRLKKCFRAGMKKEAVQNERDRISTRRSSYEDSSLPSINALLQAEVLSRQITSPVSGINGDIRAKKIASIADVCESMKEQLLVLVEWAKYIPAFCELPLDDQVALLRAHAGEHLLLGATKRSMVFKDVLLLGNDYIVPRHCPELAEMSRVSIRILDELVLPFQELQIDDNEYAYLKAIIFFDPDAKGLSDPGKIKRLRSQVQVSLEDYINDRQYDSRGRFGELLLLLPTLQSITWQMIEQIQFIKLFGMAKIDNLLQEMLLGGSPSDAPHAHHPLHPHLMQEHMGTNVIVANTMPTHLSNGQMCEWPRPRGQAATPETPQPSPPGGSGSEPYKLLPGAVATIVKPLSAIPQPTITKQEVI
# Beta2AR agonist: human beta-2 adrenergic receptor agonism by FAP; response, % (no concentration beside the values); Am2.2-beta2AR cells, FAP receptor internalization, flow cytometry; reference of the scale not given here; P07550; hit rate 0.43% among 340,000;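 active = response above a set limit, near 3 SD of response in nonfluorescent compounds, cut at about 42% in these data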;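 note: stock transfer was 100 nL into about 11 µL; a reference agonist was the positive control; negative values mostly stem from fluorescent compounds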
# Target sequence (P07550 whole entry, looked up): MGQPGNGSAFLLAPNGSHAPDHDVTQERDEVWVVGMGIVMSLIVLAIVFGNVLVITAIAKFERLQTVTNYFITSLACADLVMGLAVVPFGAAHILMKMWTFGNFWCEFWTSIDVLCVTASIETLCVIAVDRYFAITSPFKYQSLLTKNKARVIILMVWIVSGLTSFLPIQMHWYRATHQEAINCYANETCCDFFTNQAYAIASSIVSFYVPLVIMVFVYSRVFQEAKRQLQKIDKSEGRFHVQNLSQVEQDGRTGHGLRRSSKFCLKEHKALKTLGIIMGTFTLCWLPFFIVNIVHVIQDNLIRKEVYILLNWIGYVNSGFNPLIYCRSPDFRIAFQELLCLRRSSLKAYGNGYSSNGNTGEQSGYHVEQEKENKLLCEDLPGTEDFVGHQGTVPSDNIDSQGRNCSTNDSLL
# Calb FLC: affects C. albicans growth with fluconazole. C. albicans CaCi-2 (fluconazole-resistant clinical isolate) + fluconazole, Alamar Blue growth, 48 h. hit rate 0.57% among 300,000. growth inhibition, % (no concentration beside the values);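 active = most replicates above 75%; inconclusive = exactly half above 75%; inactive = most below 75%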;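 note: all wells also contain fluconazole at 8 µg/ml as a sub-toxic cotreatment; 0% = median of DMSO wells and 100% = median of geldanamycin control wells; wells of about 8 µL received 7.5 nL stock; the first replicate is given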
# LANA-H2B inh: blocks KSHV LANA binding to histone H2A/H2B. AID 2629. cell-free LANA-H2A/H2B peptide, fluorescence polarization. inhibition, % (concentration not given with the values). hit rate 0.6% among 320,000. Q9QR71; in the data active = inhibition mostly above about 10%, no sharp cut-off; inactive = mostly below about 6.7%;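 note: stock transfer was 7.5 nL into about 10 µL; 0% = median of vehicle wells and 100% = median of positive control wells; one replicate is shown; the record names a cut of 25% in any replicate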
# RanGTP-Impb inh: disruptors of Ran-importin-beta complex formation – biochemical, FRET, CFP-Ran, YFP-importin-beta, homogeneous, primary screen; cell-free CFP-Ran/YFP-importin-beta FRET ratio; inhibition, % (no concentration beside the values); hit rate 1.1% among 300,000; AID 2216;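 active = most replicates above 15%; inconclusive = exactly half above 15%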;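 note: 0% = DMSO wells and 100% = Ran loaded with GDP instead of GTP; wells of about 40 µL received 100 nL stock; the first replicate is given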
# ALR inh: inhibitors of human sulfhydryl oxidase ALR. inhibition, % (no concentration beside the values). purified ALR, DTT oxidation, H2O2 HRP-luminol luminescence. P55789. hit rate 3.8% among 290,000;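 active = mean and each replicate at 75% or more; inconclusive = only one of the two met; inactive = neither met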;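 note: stock transfer was 7.5 nL into about 7.5 µL; 0% = neutral wells and 100% = wells with inactivated enzyme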
# Target sequence (P55789 whole entry, looked up): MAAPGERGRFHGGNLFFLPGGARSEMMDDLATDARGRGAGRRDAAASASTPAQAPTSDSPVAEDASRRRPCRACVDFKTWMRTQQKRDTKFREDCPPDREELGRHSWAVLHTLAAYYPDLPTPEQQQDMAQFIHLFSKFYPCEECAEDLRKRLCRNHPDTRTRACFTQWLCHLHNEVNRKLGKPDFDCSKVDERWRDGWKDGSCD
# Vif A3G: inhibitors of Vif binding to APOBEC3G peptide, primary screen, biochemical, TR-FRET, GST-Vif 1-94, biotin-A3G peptide, dose response retest (AID 1117319). TR-FRET GST-Vif / biotin-A3G peptide binding; higher % means a stronger effect; test concentration not given here; strong numbers were not always called active. inhibition, %, or IC50 in µM where a hit was titrated. hit rate 0.57% among 260,000;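 active = above the screen mean plus three standard deviations and confirmed in dose response; inconclusive = results disagree or hit not tested in dose response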;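 note: Vif residues 1-94 fused to GST binding biotinylated APOBEC3G peptide 110-148; 0% = full assay without inhibitor and 100% = GST in place of GST-Vif; retest series ran down from 100 µM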
# * = called active by the depositor; ? = inconclusive; . = no result given. An unsorted share of the library. Share with any hit: about 6.3%.
SMILES,HNF4A DNA FP,Beta2AR agonist,Calb FLC,LANA-H2B inh,RanGTP-Impb inh,ALR inh,Vif A3G
COc1ccc(C)cc1NC(C)C(=O)NC(=O)NC1CCCCC1 (centres undefined),-1.5,-3,.,4.5,.,9,19%
CSc1ncccc1C(=O)N1CCCC(CCC(=O)NCc2ccc(F)c(F)c2)C1 (centres undefined),-0.8,-2,3,14*,2.4,-10,-10%
CC(C)C(NC(=O)C12CC3CC(CC(C3)C1)C2)C(=O)NC1=NCCS1 (centres undefined),.,.,-6,0.5,-0.5,-5,-4%
CCCCn1c(SCC(=O)Nc2ccc3c(c2)OCO3)nc2c1c(=O)n(C)c(=O)n2C,-0.5,6,8,8.5,-0.1,0,4%
CCCCn1c(=O)c(C(=O)N/N=C/c2ccc(F)cc2)c(O)c2ccccc21,.,.,-1,1.9,-2.5,0,-1%
COc1cc(/C=C(\NC(=O)c2ccccc2)C(=O)Nc2cccc(O)c2)c([N+](=O)[O-])cc1OC,1.9,10,-1,-5.8,9.5,1,0%
COCCn1ccc2c(OCC(=O)NCc3ccccc3)cccc2c1=O,4.3,3,1,0.4,0.8,-13,0%
O=C(Nc1ccccc1)c1cccc(N2CCCC2=O)c1,0.5,6,1,1.9,-1.7,-12,2%
CN(C)C(=O)CSc1nnc(-c2ccncc2)n1Cc1ccco1,10,-11,-3,-1.6,2.1,.,1%
O=C(CN1C(=O)c2ccccc2C1=O)Nc1nnc(C2CCCO2)s1 (centres undefined),0.1,-4,-16,0.4,-2.1,-8,6%
COc1ccc(N2CCN(S(=O)(=O)c3ccc4c(c3)CC(C)N4C(=O)C3CC3)CC2)cc1 (centres undefined),-1.0,-11,-3,0.5,-1.6,-4,0%
CCN(CC)c1ccc(/C=N/OCC(=O)N2CCCc3ccccc32)cc1,-3.0,3,-12,1.1,1.3,61,18%
N#CCC(=O)Nc1ccc(C(=O)OCC(=O)N=c2sccn2Cc2ccccc2Cl)cc1,13,0,4,-2.0,-2.0,74,6%
COc1ccccc1NC(=O)C1=C(C)Nc2nnnn2C1c1cccc(Br)c1 (centres undefined),-4.1,0,10,2.7,-1.6,3,-6%
CN(C)/C=C(\C#N)S(=O)(=O)C(C)(C)C,2.9,5,-18,-5.4,-3.2,-6,19%
COc1cc(CN2CCN(S(=O)(=O)c3ccc(NC(C)=O)cc3)CC2)cc(OC)c1O,-1.9,6,16,1.5,-3.1,0,7%
CCCCC(=O)Nc1ccc(C(=O)OC2CCCCC2)cc1,3.2,4,-15,-12,-0.8,-12,0%
Cc1ccc(NC(=O)c2cnccn2)c(C)c1,4.1,-5,-5,-5.7,3.1,-1,.
COc1ccc(NC(=O)Nc2ccc3c(c2)C(=O)N([C@H](C)CO)C[C@H](C)[C@@H](CN(C)C(=O)Nc2ccc4c(c2)OCO4)O3)cc1,-2.3,-8,.,1.1,.,-7,.
CC(C)CCN1CCC(CN2CCNC(=O)C2=O)CC1,1.9,-8,.,.,.,.,-5%
Cc1nn(C)c(C)c1S(=O)(=O)N1CCC(C(=O)Nc2ccc3c(c2)OCCO3)CC1,-1.7,4,-4,-0.5,-0.8,-11,6%
O=C(NCCc1ccccc1)C1(c2ccccc2)CC1(Cl)Cl (centres undefined),0.5,5,-25,-1.9,5.9,-18,-8%
CN(C1CCCCC1)S(=O)(=O)c1cccc(C(=O)Nc2ccccn2)c1,4.9,-14,.,5.7,3.9,-4,.
Cc1ccc2cc(C(c3nnnn3CC3CCCO3)N3CCCC4(CCCCC4)C3)c(=O)[nH]c2c1 (centres undefined),8.1,-17,.,.,.,.,4%
COc1ccc(-n2c(O)c(C=Nc3ccccc3)c3ccccc3c2=O)cc1,6.8,13,18,4.2,?,-6,2%
CSc1nnc(-c2cccc(NC(=O)c3ccccc3)c2)n1C,4.6,-3,7,-0.4,2.3,-3,-4%
O=C(N1CCOCC1)N1CCN(c2ccccc2F)CC1,1.1,11,3,0.5,-0.7,-2,7%
COc1ccc(-c2nn(CCC(=O)O)cc2/C=C2\SC(N)=NC2=O)cc1OC,-0.9,7,-7,0.1,5.8,.,.
COc1cc(CNc2ncn[nH]2)ccc1OCc1cccc(C)c1,-0.6,3,-2,1.2,0.4,2,-5%
COc1ccc(C(=O)Oc2cc(N)n(S(=O)(=O)c3ccc(C)cc3)n2)cc1,-0.7,7,9,2.8,0.9,8,.
O=C(COC(=O)c1cc(=O)[nH]c2ccccc12)NC1CCCC1,0.3,-2,-8,-12,-0.2,-2,8%
CC(Sc1nnc(N)s1)C(=O)NCc1ccc2c(c1)OCO2 (centres undefined),4.0,0,.,7.1,.,-3,-3%
Cc1ccc(O)c(-c2cc(-c3ccccc3C)[nH]n2)c1,-0.9,3,6,.,-2.3,.,18%
O=C(NCc1ccccn1)c1cccs1,-1.1,-2,-2,0.1,-1.1,-12,-1%
CCCC[C@H]1COCCS(=O)(=O)N1Cc1cccc([N+](=O)[O-])c1,0.7,4,4,0.5,6.9,0,.
Cc1c(-c2ccccc2)nc2ccccc2c1C(=O)OCC(=O)Nc1ncc(C(F)(F)F)cc1Cl,4.7,-5,?,1.4,5.6,-30,5%

# Record cards, as listed above. Order of values: HNF4A DNA FP | Beta2AR agonist | Calb FLC | LANA-H2B inh | RanGTP-Impb inh | ALR inh | Vif A3G
# O=C(N1CCOCC1)N1CCN(c2ccccc2F)CC1 as listed: 1.1 | 11 | 3 | 0.5 | -0.7 | -2 | 7%
# CC(Sc1nnc(N)s1)C(=O)NCc1ccc2c(c1)OCO2 (centres undefined) as listed: 4.0 | 0 | . | 7.1 | . | -3 | -3%
# COc1ccc(-c2nn(CCC(=O)O)cc2/C=C2\SC(N)=NC2=O)cc1OC as listed: -0.9 | 7 | -7 | 0.1 | 5.8 | . | .

# (next part)
SMILES,HNF4A DNA FP,Beta2AR agonist,Calb FLC,LANA-H2B inh,RanGTP-Impb inh,ALR inh,Vif A3G
Cc1nc(N2CCN(c3ccccc3)CC2)[nH]c(=O)c1C,-2.4,-1,21,-6.2,-0.9,97*,.
CN1CCCNc2nc3ccccc3nc21,4.4,0,2,-3.2,0.7,80*,8%
Cc1nc2c(C(=O)NCCC(C)C)c[nH]n2c(=O)c1Cl,2.1,1,-4,4.5,-4.1,95*,16%
O=C(Oc1ccc(N2C(=O)CCC2=O)cc1)c1ccco1,0.6,-1,-2,1.2,1.4,1,-7%
COc1ccc(Cc2nnc(SCC(=O)N3CCCC(C)C3)o2)cc1 (centres undefined),0.3,5,?,-0.7,0.7,.,1%
COc1ccc2cc3cc(C(=O)N4CCN(C5CCCCC5)CC4)oc3nc2c1,-1.6,-10,7,-2.2,0.3,-6,-2%
COCCCNC(=O)/C(C#N)=C/c1c(N2CCN(C)CC2)nc2ccccn2c1=O,2.8,-5,-10,2.0,87*,-2,-4%
COCCN(C(=O)CSc1nnc(-c2cccc(F)c2)n1N)c1c(N)n(Cc2ccccc2)c(=O)[nH]c1=O,4.1,-8,.,-2.9,?,-4,.
COc1ccc(OC)c(Nc2nc(N)c([N+](=O)[O-])c(NCc3ccccc3)n2)c1,4.0,-8,0,-0.5,-4.0,.,.
COC(=O)c1c(N)c(C#N)c2n1CCCCC2,2.7,4,7,-1.2,0.1,9,-5%
CC(C)(O)c1[nH]c2ccc(C#N)cc2c1C(C)(C)O,.,.,-6,8.0,7.2,0,.
CCn1cc(CNC(=S)Nc2cccc3ccccc23)cn1,-0.5,-2,-7,-0.6,-3.1,.,.
Cc1cc(=O)[nH]c(N/N=C/c2ccco2)n1,-0.3,-6,-9,1.5,-1.7,23,?
COc1ccc(CCN(C(=O)C(F)(F)F)C(C(=O)NC2CCCCC2)c2ccc(C)s2)cc1OC (centres undefined),-0.4,17,21,1.7,-0.8,.,-4%
CC(C)N(CCn1cnc2c([nH]c3ccccc32)c1=O)C(C)C,-3.5,-4,3,3.8,0.1,-1,-4%
CCC(C)NC(=O)c1cccc(OCc2c(C)noc2C)c1 (centres undefined),0.6,0,-6,3.5,-0.1,-14,-5%
COc1ccc2[nH]c3c(c2c1)CCN1C(=O)N([C@@H](C)C(=O)NCc2ccccc2OC)C(=O)[C@]31C,-3.4,2,-11,8.4,0.4,4,.
O=[N+]([O-])c1ccc(Sc2n[nH]c(-c3ccncc3)n2)nc1,2.1,-10,-1,-8.9,5.0,-11,4%
Cc1ccc(-c2noc(CCC(=O)NCc3ccc4c(c3)OCO4)n2)cc1,0.3,4,-32,3.8,.,.,18%
Cc1ccc(NC(=O)/C(C#N)=C/c2ccccc2C(F)(F)F)cc1,-4.0,7,?,-0.7,1.0,29,.
Nc1nc2nc(SCC(=O)N3CCCc4ccccc43)[nH]c2c(=O)[nH]1,.,.,-4,-1.0,-3.7,-9,12%
COc1ccc(NC(=O)c2ccco2)c(NC(=O)c2ccc([N+](=O)[O-])cc2)c1,-4.6,-3,8,4.6,-1.7,15,-3%
Cc1cccc(OC(C)C(=O)N2CCN(Cc3ccc4c(c3)OCO4)CC2)c1 (centres undefined),2.2,3,-22,-0.4,1.9,0,-5%
COc1ccccc1C(=O)N/N=C(\C)CC(=O)Nc1ccccn1,-0.9,-2,-5,0.9,5.6,6,.
Cc1cccc(N/C(N)=N/c2nc(C(F)(F)F)cc(C(F)(F)F)n2)c1,6.0,-9,26,7.1,?,0,-6%
Cc1ccc2c(C)c(C(=O)N(Cc3ccccc3)C3CCS(=O)(=O)C3)oc2c1 (centres undefined),-1.0,-22,2,3.0,3.1,1,.
O=C(CN(CCc1ccccc1)C(=O)CNS(=O)(=O)c1ccc(F)cc1)NCc1ccco1,-1.2,-3,-7,-1.1,0.8,3,0%
COC(=O)C1CC(=O)N(Cc2ccccc2)C1 (centres undefined),-2.8,8,-6,-6.9,-1.0,2,29%
COc1ccccc1OCCNC(=O)Cc1ccc(S(=O)(=O)N2CCOCC2)s1,0.2,-3,-6,.,2.9,.,7%
O=C(COC(=O)COc1ccccc1)NC1CCCC1,-6.1,1,.,3.4,.,-1,1%
COc1cc(OC)cc(C(=O)N[C@H](C(=O)OCc2cc(=O)oc3cc(C)ccc23)C(C)C)c1,0.9,-8,-5,-3.2,5.0,-2,.
COc1cc(OC)cc(-c2sc3ccc(OC)cc3c2C#CCO)c1,0.0,4,.,-4.9,.,-5,.
CCCCCCc1nc(C(N)=O)c2[nH]c(=O)n(-c3ccc(OCC)cc3)c2n1,-2.1,-7,-1,0.4,2.3,-5,15%
CCCCn1c(N)c(N(CCC(C)C)C(=O)C2CCCC2)c(=O)[nH]c1=O,0.8,1,.,0.7,.,-4,-15%
CCC(C)NC(=O)CCSCCC(=O)NC(C)CC (centres undefined),4.5,10,10,4.0,-7.2,4,4%
COc1ccc(-c2nc(NC(=O)CCNC(=O)c3ccco3)sc2C)cc1,0.4,-11,-13,0.5,1.6,30,.
O=C(Nc1ncn[nH]1)c1ccccc1O,1.4,-7,14,3.3,?,4,-10%
CC1CC2(NC(=O)NC2=O)C(C)CN1C (centres undefined),-2.6,0,0,-5.2,-0.1,-3,27%
CSc1ncccc1C(=O)OCC(=O)N(C)C,0.2,0,1,-3.2,7.1,0,-7%
O=C(NCCN1CCCCC1)c1ccc(Oc2cc(Cl)cc(Cl)c2)o1,2.9,13,-5,-5.6,0.8,4,.
C=CCN1CCCC1CNC(=O)c1cc2[nH]nnc2cc1OC (centres undefined),-0.1,-10,.,-3.9,.,1,.
Cc1ccc(N2CC(C(=O)Nc3ncc([N+](=O)[O-])s3)CC2=O)cc1 (centres undefined),2.4,17,21,-3.0,?,6,.
CC(=O)N1c2ccc(S(=O)(=O)NCCC(=O)Nc3ccc(F)cc3)cc2CC1C (centres undefined),-1.5,-3,0,1.0,-0.8,0,-5%
CN(C)S(=O)(=O)c1ccc(SCC(=O)N2CC(=O)Nc3ccccc32)nc1,3.2,3,.,3.3,.,-3,.
